CDC25B CDK2 inh: human CDC25B-CDK2/CyclinA binding inhibition; P30305+P24941; HTRF CDC25B-CDK2/CyclinA binding, anti-His/anti-Flag; active compounds read high; z-score (no concentration beside the values); actives 0.72% (n = 94,000);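 note: score is relative to mean and SD of negative controls; strong numbers were not always called active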
HIV TAR-Tat: HIV-1 TAR-Tat binding disruption. HIV-1 TAR RNA, Tat peptide displacement FRET; active compounds read high. z-score (concentration not given with the values). actives 0.6% (n = 100,000). AID 1259389;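 note: score is relative to mean and SD of negative controls; some compounds called inactive have numbers as strong as hits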
* = called active by the depositor; · = no result given.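 Rule for the calls: active = z-score from 3 up in half or more of its runs; inactive = the rest.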

SMILES | HIV TAR-Tat | CDC25B CDK2 inh
COc1ccc(C2=Nn3c(nnc3-c3ccccc3)SC2)cc1OC | 1 | ·
CCOc1ccc(C2CC(=O)NC(SCC)=C2C#N)cc1 (configuration not stated) | 0.52 | -1.5
COc1ccc(Cl)cc1NC(=O)CCS(=O)(=O)c1cc2c(cc1Cl)NC(=O)CO2 | 1.8 | ·
Cc1c(C(=O)N2CCCC2)oc2c1-c1nn(CC(=O)N3CCC(C)CC3)cc1CC2 | 1.6 | ·
CCc1nn(CC(=O)NCCN(C)C2CCCCC2)c(=O)c2cc3sccc3n12 | -0.63 | -1.5
N/C(=N\NC(=O)Nc1ccc(Cl)cc1)c1ccc(C(F)(F)F)cn1 | · | -0.69
COc1ccccc1NC(=O)CCCC(=O)OCC(=O)c1ccc(C)c([N+](=O)[O-])c1 | · | -2.4
Cc1nc(-n2[nH]c(C)c(CC(=O)Nc3ccc(F)cc3)c2=O)sc1C | 0.64 | -0.42
Cc1ccc2c(c1)c(=O)c(C(=O)O)cn2C | -0.91 | -1.3
CCOc1ccc(-c2nc3c(c(=O)[nH]2)Cc2cc(Br)cc(OC)c2O3)cc1 | 2.3 | 0.04
O=C(NCCSC1=NCCN1)c1cccnc1Oc1ccccc1 | · | -1.1
Nc1ccc(S(=O)(=O)Nc2ccc3nncn3n2)cc1 | -1.3 | -2.3
Cc1ccc(C(=O)n2nc(C)c(S(=O)(=O)N3CCCC3)c2C)cc1C | 0.25 | ·
O=S(=O)(Cc1ccccc1Cl)c1oc(-c2cccs2)nc1S(=O)(=O)c1ccccc1 | -1.3 | -5.6
CCc1ccc(CN(C(=O)c2nc(S(C)(=O)=O)ncc2Cl)C2CCS(=O)(=O)C2)cc1 (configuration not stated) | 2 | -0.15
Oc1ccc(Nc2nc3ccccc3n3cnnc23)cc1 | -0.42 | -1.4
COC(=O)c1c(C)oc2ccc(OCc3cc(C)ccc3C)cc12 | 1.3 | -1.6
CCc1ccc2ncc(S(=O)(=O)c3ccc(C)c(C)c3)c(N3CCOCC3)c2c1 | -1.3 | -1.4
COc1ccccc1C1CCN(C(=O)CSc2nnc(N)s2)CC1 | · | -1.3
Cc1ccc2ccc(C(Nc3ccccn3)c3ccc(F)cc3)c(O)c2n1 (configuration not stated) | 0.24 | 0.01
CC(C)CCn1c(C2CC(=O)N(c3cccc(Cl)c3)C2)nc2ccccc21 (configuration not stated) | 2.8 | 0.41
CC1=C(c2cccc(Br)c2)S(=O)(=O)N=C1N1CCc2ccccc2C1 | -1 | -10
Cc1noc(C)c1S(=O)(=O)Nc1cc(C(F)(F)F)ccc1N1CCOCC1 | · | -1.6
O=C(CSc1nnc2c3c4c(sc3ncn12)CCCC4)Nc1ccc(F)cc1F | 0.88 | -5.4

3 entries already listed, ordered by molecular weight, rising:
SMILES | HIV TAR-Tat | CDC25B CDK2 inh
Cc1ccc2ccc(C(Nc3ccccn3)c3ccc(F)cc3)c(O)c2n1 (configuration not stated) | 0.24 | 0.01
Cc1noc(C)c1S(=O)(=O)Nc1cc(C(F)(F)F)ccc1N1CCOCC1 | · | -1.6
O=C(CSc1nnc2c3c4c(sc3ncn12)CCCC4)Nc1ccc(F)cc1F | 0.88 | -5.4

The list goes on:
SMILES | HIV TAR-Tat | CDC25B CDK2 inh
CCN1CCN(c2nc(NCCC(C)C)nc3c2cnn3C)CC1 | 1.1 | ·
FC(F)(F)c1cnc2c(c1)[nH]c(=S)n2-c1ccc(Cl)cc1 | · | -3.7
CCOc1cccc(=O)c2c(C)n(-c3ccc4c(c3)OCO4)c(C)c12 | 0.11 | -0.15
Cc1noc2ncnc(NCc3ccco3)c12 | -0.46 | ·
CNCCc1cnc(CCC(c2ccccc2)c2ccccc2)[nH]1 | · | -0.63
Cn1c(=O)n(C)c2cc(S(=O)(=O)NC3CCCCC3)ccc21 | 0.51 | -0.56
CCC(Sc1nnc(C)n2c1cc1occc12)C(=O)Nc1ccc(C)cc1 (configuration not stated) | -3.3 | ·
CC1CCN(c2ccc3nnc(CCC(=O)NC(C)c4ccc5c(c4)OCCO5)n3n2)CC1 (configuration not stated) | -0.15 | ·
CN(C)CCCNc1cc(N2CCCC2)c2noc3c2c1C(=O)c1ccccc1-3 | 8.8* | 1.9
O=C(CSc1nnc(-c2cc3ccccc3o2)n1-c1ccccc1)Nc1nccs1 | 2.9 | ·
CC1CN(C(=O)CSc2nc(-c3ccc(Cl)cc3)nc3c2c(=O)n(C)c(=O)n3C)CC(C)O1 (configuration not stated) | 1 | ·
Cc1cc2nc(COc3c(C)cccc3C)cc(=O)n2o1 | 2.9 | -1.9
CCCc1nc2nc(C)cc(NCc3ccccc3)n2n1 | -0.26 | -0.03
CC1CN(C(=O)Nc2ccc(Br)cc2)c2ccccc2S1 (configuration not stated) | 1.4 | ·
O=C(CSc1nnc(-c2ccncc2)n1-c1ccccc1)c1ccc(F)cc1 | 2.2 | ·
O=C(c1cnn(-c2cccc(F)c2)c1-n1cccc1)N1CCc2ccccc2C1 | 1.1 | ·
COc1cccc(S(=O)(=O)Nc2noc3ccccc23)c1 | -0.19 | -0.06
O=C(CSc1ccc2nc(-c3ccccc3)cn2n1)c1ccccc1 | -1.9 | ·
COCCNS(=O)(=O)c1cc(-c2nnc3c4ccccc4c(C)nn23)ccc1OC | 1.9 | -1.4
O=C(Nc1cccc(Cl)c1)Nc1ccc2c(c1)oc1ccccc12 | · | -0.69
O=C(c1ccc2c(c1)nc1n2CCOC1)N1CCCCC1 | 1.7 | ·
N#Cc1c(-c2ccc(Br)cc2)nc2n(c1=O)CCS2 | · | -1
CSc1nc2n(n1)C(c1cccc(Cl)c1)C1=C(CCCC1=O)N2 (configuration not stated) | 2 | -1.6
Clc1cccc2c(N3CCCC3)cnnc12 | 1.3 | ·
O=C(C1CCCN(c2nc3cccnc3s2)C1)N1CCN(c2ncccn2)CC1 (configuration not stated) | -0.06 | ·
Cc1ccc2oc(=O)c3cc(C(=O)NC(C)c4ccc5c(c4)OCCO5)sc3c2c1 (configuration not stated) | · | -4.2
COc1ccc(/C=C/c2sc3ccccc3[n+]2CCCS(=O)(=O)[O-])c(OC)c1 | -0.84 | 0.31
CN1C(=O)C(C)(C)c2cc(S(=O)(=O)N(C)CC(=O)N3CCn4c3nc3ccccc34)ccc21 | 0.7 | ·
COc1cc(Cl)c(C)cc1NC(=O)CN1C(=O)CCn2nc(-c3cn(C)c4ccccc34)cc21 | 0.88 | ·
CCc1nc(SCC(=O)Nc2ccc3c(c2)OCO3)c2c(=O)n(C)c(=O)n(C)c2n1 | -0.7 | ·
C=CCOC(=O)COc1ccc2c3c(c(=O)oc2c1C)CCCC3 | · | -2.4
Cc1ccc(-c2cnc(NCc3cccc(Br)c3)n2C)cc1 | -1.3 | 0.24
O=C(COc1ccc(Br)cc1)Nc1noc(-c2cccs2)n1 | -0.04 | -9.1
Cc1cccnc1/N=C/c1cc(Cl)cc(Cl)c1O | · | -0.81
CCOC(=O)C1CCN(c2c(S(=O)(=O)c3ccccc3)cnc3cc4c(cc23)OCCO4)CC1 | 0.46 | -0.17
O=C(CN1C=NS(=O)(=O)c2ccccc21)c1ccccc1 | -0.9 | ·
CCc1nn(C(C)C(=O)NCCN2CCN(C)CC2)c(=O)c2cc3occc3n12 (configuration not stated) | -0.33 | -0.44
CCC(C)NC(=O)Cn1c(=O)n(CC2CCC(C(=O)NC)CC2)c(=O)c2sccc21 (configuration not stated) | 1.4 | ·
CCn1c(/C=C/c2c[nH]c3ccccc23)nc2ccccc2c1=O | 0.74 | -2.4
O=C(Nc1nnc(-c2ccc(Br)cc2)s1)Nc1ccc(Cl)cc1Cl | · | -9.8
CCOC(=O)c1sc(NC(=O)CSc2nc(C)cc(C)n2)nc1C | 1.2 | -2.5
CC(O)c1nc2ccccc2n1CC(=O)N(c1ccccc1)C(C)C (configuration not stated) | 2.2 | -1.8
COc1cccc(C2CC(=O)Nc3c2c(C)nn3-c2ccc3nnc(C)n3n2)c1OC (configuration not stated) | 1.3 | ·
Cc1ccc(-c2nc(CSCC(=O)N(C)C)no2)cc1 | 0.06 | ·
CCOC(CN(c1ccc(F)cc1)S(=O)(=O)c1cc(Cl)cc(Cl)c1)OCC | · | -0.52
COc1ccc(CCNc2nc3c(S(=O)(=O)c4ccccc4)nnn3c3ccccc23)cc1OC | 1 | -2.4
Cc1ccsc1CN(C(=O)c1cc(-c2ccc3c(c2)OCCO3)on1)C1CCS(=O)(=O)C1 (configuration not stated) | 2.3 | -0.87
COc1ccc(-c2noc(CSc3ccccc3)n2)cc1OC | -0.48 | -0.24
COc1ccc(C2C(C(=O)OC(C)C)=C(C)NC3=C2C(=O)CCC3)cc1OC (configuration not stated) | 1.6 | -1.4
O=C(O)c1ccc(OCc2nnnn2-c2ccc(Br)cc2)cc1 | 1.2 | -1.6
Cn1nccc1NC=C(C#N)C#N | · | -1.2
Cc1ccc2nc(NCc3ccccn3)c3nncn3c2c1 | 0.3 | -0.86
O=C(Nc1c2c(nn1-c1ccc(Cl)cc1)CS(=O)(=O)C2)c1ccco1 | · | -2.5
COCCNc1ncnc2ccc(Br)cc12 | -1.3 | -0.33
O=c1oc2c(-c3cccc(Cl)c3)cc(O)cc2s1 | 1.4 | -1.3
CCOC(=O)C1CCN(S(=O)(=O)c2ccc3c(c2)NC(=O)CC(C)S3)CC1 (configuration not stated) | 1.2 | ·

Following part.
SMILES | HIV TAR-Tat | CDC25B CDK2 inh
CCC(CC)C(=O)Nc1nnc(SCc2cc(=O)n3nc(C4CC4)sc3n2)s1 | -0.64 | ·
CCCCN1CCC(O)(C2CCN3Cc4ccccc4N=C23)CC1 (configuration not stated) | 0.09 | ·
Cc1cc(CNC(=O)Nc2ccc3c(c2)OCCO3)c(C)n1-c1ccc(Cl)cc1 | 0.52 | ·
C/C=C/C=N/NC(=O)N/N=C/C=C/C | · | -1.9
CCOCCCNC(=O)Cn1cnc2c1c(=O)n(C)c(=O)n2C | 0.67 | -1.3
Cn1c(C(=O)NCC2CCCO2)cc2oc3ccccc3c21 (configuration not stated) | · | -1.5
O=C1CN(CC(=O)N2CCOCC2)c2ccccc2O1 | -5.3 | -0.17
O=C1Cc2cc(S(=O)(=O)Nc3ccc(F)cc3F)cc3c2N1CCC3 | 1.2 | ·

Reformatted with values under each structure: part of the list above.
Fields: HIV TAR-Tat	CDC25B CDK2 inh
> Cn1c(C(=O)NCC2CCCO2)cc2oc3ccccc3c21 (configuration not stated)
    ·	-1.5
> CCOCCCNC(=O)Cn1cnc2c1c(=O)n(C)c(=O)n2C
    0.67	-1.3
> O=C1Cc2cc(S(=O)(=O)Nc3ccc(F)cc3F)cc3c2N1CCC3
    1.2	·
> CCCCN1CCC(O)(C2CCN3Cc4ccccc4N=C23)CC1 (configuration not stated)
    0.09	·
> C/C=C/C=N/NC(=O)N/N=C/C=C/C
    ·	-1.9
> CCC(CC)C(=O)Nc1nnc(SCc2cc(=O)n3nc(C4CC4)sc3n2)s1
    -0.64	·

Further structures follow:
SMILES | HIV TAR-Tat | CDC25B CDK2 inh
Fc1ccc(C(c2nnc(-c3ccccc3)o2)N2CCN(c3ccccc3)CC2)cc1 (configuration not stated) | 0.48 | -0.82
CC(C)OC(=O)NCCOC(=O)Nc1ccccc1Cl | 1.5 | -1.1
O=c1cc(CSc2ccccn2)[nH]n1-c1nc2ccccc2s1 | -0.86 | ·
Oc1cccc(Nc2ncnc3sc4c(c23)CCCC4)c1 | 1.1 | ·
O=C(NC1Sc2ccccc2N=C1c1ccccc1)c1ccco1 (configuration not stated) | · | 1.4
COC(=O)c1sccc1S(=O)(=O)N1CCN(c2ncnc3c(C)csc23)CC1 | · | -1.6
Cc1nc(CSc2n[nH]c(-c3ccc(C(C)(C)C)cc3)n2)cs1 | · | -0.6
CCN(CC)S(=O)(=O)c1ccc2c(c1)CC(C(=O)N1CCN(C3CCCCC3)CC1)N2C(C)=O (configuration not stated) | 1.6 | ·
Cc1oc2ncnc(N3CCCCC3)c2c1C(=O)N1CCC(C)CC1 | 1.1 | ·
O=C1CCc2cc(S(=O)(=O)N3CCC(C(=O)N4CCCC4)CC3)ccc2N1 | 0.06 | -1.2
O=C1c2ccccc2NC(c2cccs2)N1CCCN1CCOCC1 (configuration not stated) | · | -1.1
COc1cc(NS(=O)(=O)c2cc(-c3onc(C)c3C)ccc2C)cc(OC)c1 | 0.78 | ·
Cc1ccc(S(=O)(=O)c2nnn3c2nc(NCC2CCCO2)c2sccc23)cc1 (configuration not stated) | -0.83 | ·
Cc1nc(N2CCCC2)c2c(C(=O)Nc3ccc(Br)cc3F)c(C)oc2n1 | 2.8 | ·
CC(C)n1c(CN2CCN(c3ccccc3)CC2)nc2c1c(=O)n(C)c(=O)n2C | 2.7 | -1.5
CCCOC(=O)C1=C(C)NC2=C(C(=O)CC(C)(C)C2)C1c1cccc2ccccc12 (configuration not stated) | -0.26 | -1.5
CSc1nc2sc3c(c2c2nnc(SC(C)C(=O)N4CCOCC4)n12)CC(C(C)C)OC3 (configuration not stated) | -1.3 | -0.29
CN1CCN(Cn2c(O)c(N=NC(=O)CSc3nc4ccccc4s3)c3ccccc32)CC1 | · | -5.5
CCCc1ccc(-c2ccc(C(=O)O)cc2)nc1 | 2.2 | -2.4
O=[N+]([O-])c1ccc2oc(C(O)c3ccc(-c4ccccc4)cc3)cc2c1 (configuration not stated) | · | -2.3
CCC(Sc1nnc2c3ccccc3n(C)c2n1)C(=O)Nc1cccc2ccccc12 (configuration not stated) | · | -3
CCOC(=O)C1=C(C)Nc2nc3ccccc3n2C1c1cccc(O)c1 (configuration not stated) | -0.17 | -0.07
COc1ccc(NC(=O)CCS(=O)(=O)c2ccc3c(c2)CC(=O)N3C)c(OC)c1 | 0.17 | ·
CC(C)CC(=O)NS(=O)(=O)c1ccc(NS(C)(=O)=O)cc1 | 0.39 | -0.66
N#Cc1ccc(SCCO)c([N+](=O)[O-])c1 | · | 1
Cc1cc2nc(CSc3nc4sc5c(c4c(=O)n3C)CCCC5)cc(=O)n2o1 | 1.1 | -1.4
CCCc1nc(-c2cc3cc(C)ccc3nc2OC)no1 | -0.24 | -3.9

Screens deposited in PubChem BioAssay by Center for Chemical Genomics, University of Michigan.
